Source: PubChem (several laboratories)
ugtP null kill – kills S. aureus RN4220 lacking UgtP. growth inhibition, % (test concentration not listed). S. aureus RN4220 ugtP deletion, OD600 growth, 16 h; some inactives read as strong as hits. AID 1259309. 330,000 tested, 0.54% active;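 active = z-score under -3 and OD600 up to 0.15 on both plates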;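 note: plate controls were untreated wells for no effect and antibiotic for full effect; wells of about 80 µL received 100 nL stock; the first replicate is given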
PrP 5UTR inh – suppresses PrP 5' UTR mRNA reporter expression. cell-based PrP 5' UTR mRNA reporter, plate reader. AID 488862. 340,000 tested, 0.35% active. inhibition, % (concentration not given with the values);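 active = every replicate at 50% or more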;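 note: 0 = median of the neutral control wells; tested in H4 reporter cells; numbers are from one replicate; inactives centre near -14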
BJeLR viability – kills HRASV12-expressing BJeLR cells; BJeLR (HRASV12) viability, CellTiter-Glo ATP luminescence, 48 h; reference of the scale not given here; inhibition, % (no concentration beside the values); 300,000 tested, 0.17% active; AID 1554;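 active = replicate mean above 50%; inconclusive = above 50% but judged a plate artefact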;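 note: 50 nL library stock added to about 25 µL; numbers are from one replicate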
Autofluor counter – flagged as autofluorescent in microsphere protease counterscreen. 360,000 tested, 3.1% active. compound autofluorescence counterscreen, microsphere flow cytometry; hits give high values. fluorescence intensity (no concentration beside the values);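 active = at least 3 SD above the mean of all compounds, about 16000 in these data; inconclusive = too few beads counted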;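 note: 100 nL of 1 mM stock went into each well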
Mtb hypoxia rep – Mtb hypoxia fluorescent reporter inhibition | M. tuberculosis hypoxia-regulated fluorescent reporter, fluorescence | fluorescence inhibition, % (concentration not given with the values) | 300,000 tested, 0.1% active | AID 1159583;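 active = 35 to 45% if threefold the growth effect, above 45% if 1.5-fold the growth effect; inactive = the rest, general growth blockers included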;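 note: wells of about 50 µL received 100 nL stock; 0% = vehicle wells and 100% = reference inhibitor wells; whole bacteria with a GFP reporter of the hypoxia response; strong numbers were not always called active; many hits fall short of the cut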
Sa RN4220 lethal – kills Staphylococcus aureus RN4220; inhibition, % (test concentration not listed); S. aureus RN4220 growth, OD600, 16 h; AID 1259311; 330,000 tested, 0.33% active;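 active = z-score of -3 or lower and OD600 up to 0.18 on both plates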;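 note: plate controls were untreated cells for no effect and reference antibiotic for full effect; stock transfer was 100 nL into about 80 µL; one replicate is shown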
Mtb hypoxia rep growth – recorded beside Mtb hypoxia rep, whose call it bears; growth inhibition, %; measured here: M. tuberculosis growth (absorbance);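 0% = vehicle and 100% = reference antibiotic; read after six days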
* hit, by the source's call; u = inconclusive; x = not tested or not shown. This is a random part of the collection. Share with any hit: about 4%.

The first four entries as a preview:
1	CCOC(=O)CSc1nnc2n(C3CCCCC3)c(=O)c3c4c(sc3n12)CCCC4
2	CCOC(=O)C(NC(=O)CC)(Nc1ccc(S(=O)(=O)Nc2cc(C)on2)cc1)C(F)(F)F (centres undefined)
3	Cc1ccc(C(=O)N/N=C\c2cc3c(cc2Br)OCO3)s1
4	CCCNC(=O)COC(=O)/C=C/c1ccc(C)o1

assay / entry,1,2,3,4
ugtP null kill,-7,7,x,5
Mtb hypoxia rep growth,0,13,x,2
BJeLR viability,0,3,-5,-23
Sa RN4220 lethal,1.4,8.0,x,12
Autofluor counter,23468*,3852,2497,3955
Mtb hypoxia rep,0,3,x,-7
PrP 5UTR inh,-5,-8,-23,-7

This part in full, from the start:
1	CCOC(=O)CSc1nnc2n(C3CCCCC3)c(=O)c3c4c(sc3n12)CCCC4
2	CCOC(=O)C(NC(=O)CC)(Nc1ccc(S(=O)(=O)Nc2cc(C)on2)cc1)C(F)(F)F (centres undefined)
3	Cc1ccc(C(=O)N/N=C\c2cc3c(cc2Br)OCO3)s1
4	CCCNC(=O)COC(=O)/C=C/c1ccc(C)o1
5	O=C(COc1cccc2ccccc12)NNC(=O)c1cccs1
6	COc1ccc2cc(C(=O)C3CCCN(Cc4cccc(C)n4)C3)ccc2c1 (centres undefined)
7	CCCOC(=O)C(C)n1cnc2scc(-c3ccc(C)cc3)c2c1=O (centres undefined)
8	CN(C(=O)C(=O)c1cn(CC(=O)N2CCCC2)c2ccccc12)C1CCCCC1
9	CCOC(=O)C1CCCN(CC(=O)Nc2nc(-c3ccccc3)cs2)C1 (centres undefined)
10	Cn1c(C(=O)N2CCC(C(=O)N3CCN(Cc4ccc5c(c4)OCO5)CC3)CC2)cc2sccc21

assay / entry,1,2,3,4,5,6,7,8,9,10
ugtP null kill,-7,7,x,5,-1,13,5,9,12,-4
Mtb hypoxia rep growth,0,13,x,2,x,9,-6,-4,8,6
BJeLR viability,0,3,-5,-23,5,-1,4,6,-7,-3
Sa RN4220 lethal,1.4,8.0,x,12,2.7,5.0,7.4,2.7,-14,-14
Autofluor counter,23468*,3852,2497,3955,2358,3926,3813,u,3758,6690
Mtb hypoxia rep,0,3,x,-7,x,3,-16,-3,-2,0
PrP 5UTR inh,-5,-8,-23,-7,-9,-18,-11,-16,-10,-17

11	O=C1CC(SC2=NCCS2)C(=O)N1c1ccc(Cl)cc1 (centres undefined)
12	Cc1ccc(CN2C(c3ccccc3)COCCS2(=O)=O)cc1 (centres undefined)
13	O=C(OCc1cc(=O)n2c(n1)sc1ccccc12)c1ccc2c(=O)n3c(nc2c1)CCC3
14	COC12CCC3(CC1C(C)(O)C(C)(C)C)[C@H]1Cc4ccc(OC5OC(C(=O)O)[C@@H](O)C(O)[C@H]5O)c5c4[C@@]3(CCN1CC1CC1)C2O5 (some centres undefined)
15	CCCCCC(=O)NC(Nc1ccc(S(N)(=O)=O)cc1)C(Cl)(Cl)Cl (centres undefined)
16	CCN(CC)S(=O)(=O)c1ccc(C(=O)N2CCCCC2)cc1
17	COc1ccc(NC(=O)c2cc([N+](=O)[O-])ccc2N2CCCC2)cc1
18	COc1ccc(S(=O)(=O)N2CCCC2C(=O)Nc2ccc(C(C)=O)cc2)cc1 (centres undefined)
19	COc1cccc(OC)c1C(=O)Nc1cccc(S(=O)(=O)Nc2ccccc2Cl)c1
20	COc1ccc(S(=O)(=O)N2CCN(C(=O)c3cc(C)nc4ccccc34)CC2)cc1OC

assay / entry,11,12,13,14,15,16,17,18,19,20
ugtP null kill,x,-2,-21,6,-7,-6,1,0,4,4
Mtb hypoxia rep growth,x,8,-3,x,5,5,-3,x,3,0
BJeLR viability,8,x,-1,x,4,-5,0,-3,x,x
Sa RN4220 lethal,x,0.4,2.8,0.5,3.4,5.3,-1.3,2.2,6.4,2.2
Autofluor counter,2199,x,4126,4440,1745,9809,4559,5102,3784,4290
Mtb hypoxia rep,x,-2,-4,x,6,18,-4,x,14,5
PrP 5UTR inh,-11,x,-3,-8,-13,-25,-15,-2,-14,-26

21	CCC/C(O)=C1\C(=O)CC(C)(C)CC1=Nc1cccc([N+](=O)[O-])c1
22	CCCC(C)C1(CC)C(=O)NC(=Nc2ccccc2OC)NC1=O (centres undefined)
23	NC(=O)CN1C(=O)C(=c2sc3nc(=O)c(Cc4ccccc4)nn3c2=O)c2ccccc21
24	N#CC1=C(SCc2ccc(C#N)cc2)N=C(N)C(c2nc(-c3ccccc3)cs2)C12CCCCC2 (centres undefined)
25	COC(=O)c1cc(Cc2ccc(N)c(C(=O)OC)c2)ccc1N
26	Cn1c(N)c(C(=O)COC(=O)COc2ccc(C#N)cc2)c(=O)n(C)c1=O
27	O=C(COc1ccccc1[N+](=O)[O-])N1CCN(S(=O)(=O)c2ccccc2)CC1
28	Cn1ccnc1C(=O)c1ccc(Cl)c(S(=O)(=O)N2CCOCC2)c1
29	O=C(Cc1cccc2ccccc12)Nc1cccnc1
30	COC(=O)C1=C(C)N(Cc2ccccc2)C(=NCc2cccc(C(F)(F)F)c2)N[C@H]1c1cccc(F)c1

assay / entry,21,22,23,24,25,26,27,28,29,30
ugtP null kill,9,-6,0,92*,19,-5,-75,-6,3,x
Mtb hypoxia rep growth,16,15,13,x,9,1,4,0,5,x
BJeLR viability,-6,-1,x,-3,3,8,-12,1,11,99*
Sa RN4220 lethal,7.6,-3.2,0.4,98*,-2.8,-2.2,4.1,-1.7,4.8,x
Autofluor counter,3990,11735,x,2078,9456,4968,3289,3780,3258,3070
Mtb hypoxia rep,0,8,7,x,21,-6,15,3,9,x
PrP 5UTR inh,-5,-9,x,2,-16,-18,-14,x,-10,-12

31	CCCCc1ccc(-c2nc(-c3ccncc3)no2)cc1
32	Clc1cccc(CNc2nc(-c3cccnc3)nc3ccccc23)c1
33	NS(=O)(=O)c1ccc(N2CCOCC2)c(C(=O)NCCCSc2ccccc2)c1
34	O=C(COc1cccc2ccccc12)Nc1nc2ccccc2[nH]1
35	CCc1ccc(C(=O)COC(=O)C(CCSC)NC(=O)c2ccccc2)cc1 (centres undefined)
36	CCN(C(=O)Cn1cc(C(F)(F)F)ccc1=O)c1c(N)n(Cc2ccccc2)c(=O)[nH]c1=O
37	CCCCn1c(CN2CCN(C)CC2)nc2ccccc21
38	COC(=O)c1cc(C)sc1NC(=O)CN1CCN(C(=O)c2ccco2)CC1
39	COC(=O)c1ccc(NS(=O)(=O)c2cc(C)ccc2OC)cc1
40	COCc1cc(=O)n2[nH]c(C)nc2n1

assay / entry,31,32,33,34,35,36,37,38,39,40
ugtP null kill,20,-6,4,-15,10,1,-6,0,3,8
Mtb hypoxia rep growth,x,10,-6,8,4,7,7,5,12,3
BJeLR viability,7,-8,x,x,6,-28,0,-2,10,5
Sa RN4220 lethal,-2.0,-8.3,7.6,-0.6,4.2,3.9,0.7,-2.8,5.6,5.3
Autofluor counter,4764,3420,3653,3107,2739,3638,10071,4877,2886,x
Mtb hypoxia rep,x,9,-11,11,10,-3,1,-3,5,5
PrP 5UTR inh,33,-15,4,-43,-23,-8,4,-14,-29,-20

41	COc1cc(C(=O)O)ccc1OCc1ccncc1
42	Cc1ccc(C(C(=O)NC2CCCC2)N(C(=O)Cc2cccs2)c2ccc(C)c(C)c2)o1 (centres undefined)
43	O=C(Nc1ccncc1)c1c(F)cccc1F
44	Cc1c(CCC(=O)O)c(=O)oc2cc(OCc3ccccc3Br)ccc12
45	CC(=O)Nc1nnc(SCc2cc(=O)c(OC(=O)c3ccccc3)co2)s1
46	COc1cccc(C(=O)n2ccc(-c3cccs3)n2)c1
47	NC(=O)c1ccc(Sc2nnc(-c3cccs3)n2CC2CCCO2)c([N+](=O)[O-])c1 (centres undefined)
48	c1ccc(-c2ccccc2OCCCN2CCCCC2)cc1
49	COC(=O)c1cnc(NNS(=O)(=O)c2ccc(Cl)cc2)nc1C(F)(F)F
50	COc1cccc(NC(=O)COC(=O)c2ccc3ccccc3n2)c1

assay / entry,41,42,43,44,45,46,47,48,49,50
ugtP null kill,5,-16,2,-1,1,0,6,-1,-1,-3
Mtb hypoxia rep growth,8,-4,6,1,6,3,2,9,11,6
BJeLR viability,2,x,0,2,-20,0,-8,1,-3,x
Sa RN4220 lethal,2.0,-4.4,5.7,13,0.9,3.9,2.2,2.9,6.4,-0.4
Autofluor counter,3871,11102,7746,3812,4975,6097,2203,7707,3572,6079
Mtb hypoxia rep,7,-4,6,16,10,-6,-4,3,5,2
PrP 5UTR inh,-27,-13,9,6,-21,-8,-14,-18,-26,9

51	CC(NC(=O)CCc1ccccc1)c1ccc2c(c1)OCO2 (centres undefined)
52	CN(CC(=O)Nc1cccc(F)c1)C(=O)CCc1nc2ccccc2c(=O)[nH]1
53	Cc1ccc(NC(=O)c2cnccn2)cc1
54	CC(=O)Nc1ccc(S(=O)(=O)NNc2ccc([N+](=O)[O-])cc2)cc1
55	COc1ccc(OC)c(-c2cc(C(=O)NN=Cc3ccc(F)cc3)c3ccccc3n2)c1
56	N#Cc1c(NC(=O)CSc2nc3c(c(C(F)(F)F)n2)CCc2ccccc2-3)sc2c1CCCC2
57	C/C(=N\Nc1c(F)c(F)c(Br)c(F)c1F)c1ccncc1
58	COc1ccc(CNC(=O)C2CCN(S(=O)(=O)c3cccc4cccnc34)CC2)cc1
59	CN(C)C(=O)Oc1c(Cl)cc(Cl)c2cccnc12
60	CCOc1cc(C(=O)Nc2ccc(S(=O)(=O)NC3=NCCCCC3)cc2)cc(Br)c1OC

assay / entry,51,52,53,54,55,56,57,58,59,60
ugtP null kill,7,5,6,3,5,30,x,9,6,50
Mtb hypoxia rep growth,19,-3,-4,4,1,6,x,x,-3,4
BJeLR viability,-7,-1,-10,-15,x,2,-1,-3,-13,7
Sa RN4220 lethal,3.5,0.9,7.5,4.7,0.9,1.1,x,1.5,4.6,-0.5
Autofluor counter,3154,6549,3779,3375,x,22691*,4055,5572,3740,5372
Mtb hypoxia rep,16,0,1,6,7,5,x,x,-2,6
PrP 5UTR inh,-21,-6,-31,-5,x,-11,-18,-23,-17,7

61	CN(C(=O)CSc1nnc2ccccn12)c1c(N)n(Cc2ccccc2)c(=O)[nH]c1=O
62	O=C(CCNC(=O)c1ccccc1Cl)NCC12CC3CC(CC(C3)C1)C2
63	CC1=NN(c2ccc(S(=O)(=O)O)cc2C)C(=O)C1
64	Cc1c(C(=O)NCc2cccs2)oc2ccc(S(=O)(=O)N3CCOCC3)cc12
65	COc1ccc(-c2nn3c(=O)c(C)nnc3s2)cc1
66	O=C(c1ccccc1)C1CCN(c2ncccc2[N+](=O)[O-])CC1
67	CC1(C)Cc2cccc(OCC(=O)Nc3cc(S(C)(=O)=O)ccc3Cl)c2O1
68	CC(C)CN1CCC(=O)N(CCSc2ccccc2)CC1
69	COc1ccc(C=NNC(=O)C(=O)N2CCCC2)cc1OC
70	CCOC(=O)CN1C(=O)N[C@@H](c2ccccc2)[C@@H](C(=O)OC)[C@H]1C

assay / entry,61,62,63,64,65,66,67,68,69,70
ugtP null kill,2,-3,-1,-8,3,12,2,3,7,x
Mtb hypoxia rep growth,-3,5,5,7,1,7,-4,-4,5,x
BJeLR viability,-7,-4,-2,3,3,-3,x,2,x,2
Sa RN4220 lethal,3.3,3.0,0.9,1.3,4.1,6.0,1.7,4.3,2.4,x
Autofluor counter,7530,2452,4849,9155,3852,3236,6577,2936,x,4111
Mtb hypoxia rep,5,1,4,7,9,17,-1,-1,13,x
PrP 5UTR inh,-3,-34,-11,-14,-31,-19,-6,-43,x,-12

71	CCCCN(C(=O)c1cc(-c2ccco2)nc2ccccc12)c1c(N)n(CCC)c(=O)[nH]c1=O
72	CC1=C(C)CC(C(=O)NCC(=O)c2ccccc2)C(C(=O)O)C1 (centres undefined)
73	C=CCn1c(O)c(N=NC(=S)Nc2ccccc2F)c2cc(S(=O)(=O)N3CCOCC3)ccc21
74	O=C(NCc1ccccc1Cl)C(=O)NCC1OCCCN1S(=O)(=O)c1cccs1 (centres undefined)

assay / entry,71,72,73,74
ugtP null kill,4,-5,1,3
Mtb hypoxia rep growth,-5,6,5,5
BJeLR viability,x,-8,17,-1
Sa RN4220 lethal,0.6,3.8,3.8,2.8
Autofluor counter,8512,7258,4349,4138
Mtb hypoxia rep,-14,8,7,3
PrP 5UTR inh,-16,-22,-1,0
